High-throughput results deposited in PubChem BioAssay by National Center for Advancing Translational Sciences (NCATS).
TRPML1 inh – blocks the human TRPML1 channel. activity change, negative = inhibition, % (test concentration not listed). actives 0.02% (n = 390,000). AID 624415. Q9GZU1. TRPML1-inducible cells, Ca2+ dye fluorescence, FDSS; active compounds read low; inhibition of EC80 agonist-evoked calcium signal; in the data active means activity change below about -50%; inconclusive means about -30% to -50%; inactive means above about -30%;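 note: stimulus is agonist 54-4 at its EC80 concentration; % is set by controls: 0 for no effect and ±100 for the full control effect; compound concentration not given in the record; the text of the record puts the active cut at -80%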
Target sequence (Q9GZU1 whole entry, looked up): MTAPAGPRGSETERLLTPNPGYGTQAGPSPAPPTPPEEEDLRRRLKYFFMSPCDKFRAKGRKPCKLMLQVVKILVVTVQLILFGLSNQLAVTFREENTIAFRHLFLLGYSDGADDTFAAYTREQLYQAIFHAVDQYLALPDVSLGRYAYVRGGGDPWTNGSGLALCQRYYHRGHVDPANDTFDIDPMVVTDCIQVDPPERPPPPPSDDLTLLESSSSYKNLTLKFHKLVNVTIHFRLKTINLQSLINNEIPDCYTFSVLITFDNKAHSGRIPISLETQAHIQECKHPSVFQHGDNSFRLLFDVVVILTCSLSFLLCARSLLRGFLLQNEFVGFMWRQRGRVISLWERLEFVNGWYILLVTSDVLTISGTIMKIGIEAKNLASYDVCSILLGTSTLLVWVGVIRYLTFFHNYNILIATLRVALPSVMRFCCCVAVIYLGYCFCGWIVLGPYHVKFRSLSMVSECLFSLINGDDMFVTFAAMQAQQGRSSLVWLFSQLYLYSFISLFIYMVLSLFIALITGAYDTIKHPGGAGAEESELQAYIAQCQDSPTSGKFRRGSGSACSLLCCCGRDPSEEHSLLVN
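Calcium fluorescence in TRPML1-DL cells induced overnight with Tet: a 110 s read after compound pin addition, then a 110 s antagonist read after challenge with 54-4 at 4 uM final (EC80).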
TRPML1 ag – agonists of human TRPML1 channel. Q9GZU1. activation, % (no concentration beside the values). AID 624414. TRPML1-expressing cells, Ca2+ dye fluorescence, FDSS; host cell line not named in the record; reference of the full effect not given here. actives 0.12% (n = 410,000); in the data active = activation above about 50%; inconclusive = about 30% to 50%; inactive = below about 30%; note: 0% is about no effect; the text of the record puts the active cut at 80%
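Tetracycline-induced TRPML1-DL cells are seeded and incubated overnight before loading with a no-wash Ca2+ dye and quencher. Agonist activity is taken from the 110 s fluorescence read following compound pin-transfer on an FDSS, before EC80 54-4 challenge.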
D2 ag – activates the human D2 dopamine receptor; AID 624465; actives 0.084% (n = 360,000); P14416; activation, % (concentration not given with the values); DiscoveRx PathHunter D2 beta-arrestin, luminescence, 90 min; 100% = 57 uM dopamine signal; in the data active = activation above about 40%; inconclusive = about 15% to 40%; inactive = below about 15%; note: compound concentration not given in the record; the text of the record calls up to 30% inactive
Target sequence (P14416 whole entry, looked up): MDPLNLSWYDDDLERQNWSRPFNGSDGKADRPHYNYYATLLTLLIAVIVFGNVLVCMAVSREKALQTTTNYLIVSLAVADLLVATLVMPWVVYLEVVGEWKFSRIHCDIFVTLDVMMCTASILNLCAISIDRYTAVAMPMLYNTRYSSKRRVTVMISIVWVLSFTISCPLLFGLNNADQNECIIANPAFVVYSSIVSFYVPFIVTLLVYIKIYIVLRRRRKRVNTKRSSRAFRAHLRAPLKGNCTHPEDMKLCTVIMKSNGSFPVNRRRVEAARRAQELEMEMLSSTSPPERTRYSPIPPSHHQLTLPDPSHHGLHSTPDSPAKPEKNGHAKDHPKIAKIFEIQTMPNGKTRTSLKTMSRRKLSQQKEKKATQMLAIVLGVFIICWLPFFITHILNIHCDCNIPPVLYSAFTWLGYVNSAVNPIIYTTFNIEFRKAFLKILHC
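Agonist mode: compounds alone added to overnight-plated D2 PathHunter cells for 90 min at 37 C, with 57 uM final dopamine (EC100) defining full response. Beta-arrestin recruitment detected by chemiluminescent reagent, read after 1 h at ambient temperature.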
CtBP-E1A blk – inhibitors of CtBP/E1A interaction; AlphaScreen GST-E1A/His-CtBP binding, 1536-well; active compounds read low; control for the full effect not named in the record; activity change, % (test concentration not listed); actives 0.49% (n = 340,000); in the data active means activity change below about -65%; inconclusive means about -30% to -65%; inactive means above about -30%; note: % is set by controls: 0 for no effect and ±100 for the full control effect
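Steps: dispense buffer (Tris pH 8.0, NaCl 300 mM, TCEP 1 mM, BSA, Tween 20); add 5X protein mix (GST-E1A, His-CtBP, 125 nM each); pin 23 nL compound; 2 h at 37 °C, dark; add 5X beads (50 ug/mL); 1 h; read.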
Six1-Eya2 inh – blocks human Six1 binding to Eya2. AlphaScreen GST-Six1/His-Eya2 binding, biochemical; active compounds read low; control for the full effect not named in the record. activity change, % (no concentration beside the values). actives 0.56% (n = 360,000); in the data active = activity change below about -65%; inconclusive = about -30% to -65%; inactive = above about -30%; note: % is set by controls: 0 for no effect and ±100 for the full control effect
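GST-Six1 + His-Eya2 (5X stock: 250/500 nM); Tris pH 8.0, 300 mM NaCl, 0.05% BSA, 0.02% Tween 20; GSH donor/Ni acceptor beads; 1 h 37 °C dark; AlphaScreen readout.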
PINK1 expr mod – PINK1 expression modulation | PINK1 immunofluorescence, high-content cytometry, 24 h | Potency, µM (titrated, usually from 76.6 µM), inactives show top-dose activation (PINK1 increase), usual class: activators | actives 0.2% (n = 410,000); active = well fitted activation curve with a large enough effect; inconclusive = small, poorly fitted or top-dose-only effect; inactive = flat fitted curve, though single readings scatter; cell line not stated here;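 note: potency is the fitted concentration of half-maximal effect; % of control where 0% means no effect; nearly all actives have a fitted effect of over 65% in size; a mitochondrial uncoupler was the plate control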
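Fluorescence from anti-PINK1 antibody, together with nuclear and cell stains, was scanned on a laser-scanning cytometer. Before staining, stable-line cells were incubated 24 hours with compounds at 5 concentrations; primary antibody 12 h at 10 degrees C.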
* marks the source's active call; other numbers are inactive results; ? = inconclusive; · = not tested or not shown; [ ] = another dose, or the depositor's remark.

mol	TRPML1 inh	TRPML1 ag	D2 ag	CtBP-E1A blk	Six1-Eya2 inh	PINK1 expr mod
CC(=O)c1c(C)[nH]c(C(=O)COC(=O)CN2C(=O)C3CCCCC3C2=O)c1C (stereo not given)	15.6	0.0	3.4	5.7	-1.0	0.7%
O=C(OCC(=O)c1ccccc1Br)c1ccncc1	-20.3	-1.3	2.4	3.9	6.2	0.5%
Cn1ccc(C(=O)OCC(=O)Nc2cccc3ccccc23)n1	-6.9	1.8	-0.7	1.1	10.0	-0.2%
Oc1ccc(N=Cc2c(O)ccc3ccccc23)cc1	33.2	-0.3	2.7	·	-0.4	-0.6%
COc1cc2c(cc1OC)CN(Cc1ccc(C)s1)CC2	-1.2	-0.9	1.0	-8.1	-5.3	-0.2%
COc1cc(C(=O)NCc2cn3cccc(C)c3n2)cc(OC)c1OC	4.3	-0.5	-2.2	2.7	-2.2	3.2%
CN(C)S(=O)(=O)N(CC(=O)Nc1ccc(Br)cc1F)c1ccccc1	10.2	2.4	·	·	·	0.0%
O=C(N/N=C/c1ccc([N+](=O)[O-])o1)c1cn(-c2ccccc2)nc1-c1ccccc1	-13.2	1.9	4.1	-16.7	-18.2	12.0%
O=C(OCC(=O)N1CCc2ccccc21)c1ccccc1	3.7	0.6	-3.7	4.9	-3.6	-1.3%
CC(=O)Nc1cc2c(cc1C(C)=O)OCCO2	?	0.2	-3.0	10.9	6.9	0.9%

Next structures
mol	TRPML1 inh	TRPML1 ag	D2 ag	CtBP-E1A blk	Six1-Eya2 inh	PINK1 expr mod
O=C(CCl)NNc1cccc(Cl)n1	4.2	2.2	-16.4	1.4	-0.8	2.0%
OCC[C@H]1C[C@@H](O)[C@H](O)[C@@]2(Cc3ccccc3CO2)O1	-8.3	0.1	-3.3	3.2	2.0	0.4%
Cc1ccccc1NC(=S)N(C)Cc1cn(C)c2ccccc12	-2.2	0.0	-3.4	-0.7	-16.1	0.2%
CC1CCN(C(=O)C2CCCN(S(=O)(=O)c3ccc4c(c3)CC(C)N4C(=O)C3CC3)C2)CC1 (stereo not given)	21.6	-0.6	-4.1	4.5	0.5	-1.0%
N=C1C(c2nc3ccccc3c(=O)[nH]2)=C(O)CN1CCO	0.8	-0.3	-4.0	-3.6	-3.0	-0.3%
O=C(COC(=O)CCC(=O)N1CCOCC1)Nc1ccc(Br)cc1Br	-5.3	0.5	-2.8	-6.8	8.7	0.8%
COc1ccc(S(=O)(=O)N2CCN(Cc3cccs3)CC2)cc1OC	-0.1	0.9	-0.7	-2.3	0.5	1.2%
O=C(CCNC(=O)c1ccco1)Nc1ccc(Cl)c(C(F)(F)F)c1	23.8	0.3	-2.8	4.2	10.2	1.6%
CCn1c(=O)c2c3c(sc2n2c(=S)[nH]nc12)CCC3	21.2	0.4	-1.8	-5.6	-2.6	-1.0%
Cc1ccc(C(=O)NC2CCN(CC(=O)NCc3cccs3)CC2)cc1	-10.9	-0.5	-3.8	7.8	-1.2	-0.2%

(continued)
mol	TRPML1 inh	TRPML1 ag	D2 ag	CtBP-E1A blk	Six1-Eya2 inh	PINK1 expr mod
Cc1ccc(C(=O)Nc2ccccc2)cc1S(=O)(=O)Nc1ccccc1	18.4	1.2	·	·	·	6.0%
Nc1nc(SCC(=O)N2CCCc3ccccc32)n[nH]1	-3.1	0.3	2.2	·	8.8	-0.2%
COc1ccc(Cc2c(-c3cccc(Cl)c3)nc3cc(C)c(Br)c(C)n23)c(C)c1	·	0.3	·	1.9	0.9	2.3%
CCN(CC)S(=O)(=O)c1cc(-c2nnc(-c3ccc(Br)cc3)o2)ccc1Br	32.7	0.3	-0.1	18.8	2.1	2.8%
O=C(CN(Cc1ccc(Cl)cc1)C(=O)CNS(=O)(=O)c1ccccc1)NCC1CCCO1 (stereo not given)	8.1	-1.2	2.9	0.0	8.9	2.0%
CCCCN(C(=O)c1cccc(S(=O)(=O)N2CCN(Cc3ccccc3)CC2)c1)c1ccccc1	?	0.8	-1.8	-15.8	-16.6	2.0%
CCN(CC(=O)Nc1c(F)cccc1F)C(=O)CSCC(=O)Nc1ccc(OC)cc1	-5.1	0.0	-0.2	-24.2	8.7	-0.2%
CCC(=O)Nc1cccc(NC(=O)CSc2nnc(-c3ccc(NS(C)(=O)=O)cc3)n2C)c1	9.4	-0.6	-2.3	0.0	18.7	-1.2%
O=CNc1c(Br)cc2c(c1Br)Cc1cc(Br)ccc1-2	1.1	-0.4	-7.0	2.9	7.1	1.8%
Cc1ccn2cc(CCNC(=O)C3CC=CCC3C(=O)O)nc2c1 (stereo not given)	-7.7	-0.3	-1.1	3.7	-7.4	-0.8%

Sorted by value in PINK1 expr mod (largest number first): some entries from above
Structure | PINK1 expr mod
O=C(CCNC(=O)c1ccco1)Nc1ccc(Cl)c(C(F)(F)F)c1 | 1.6%
CCn1c(=O)c2c3c(sc2n2c(=S)[nH]nc12)CCC3 | -1.0%
O=C(OCC(=O)N1CCc2ccccc21)c1ccccc1 | -1.3%

Further structures.
mol	TRPML1 inh	TRPML1 ag	D2 ag	CtBP-E1A blk	Six1-Eya2 inh	PINK1 expr mod
Cc1cc(C(=O)CN2CCCC2)c(C)n1-c1ccc(Cl)cc1	-10.3	0.2	-5.5	0.6	-12.1	2.7%
CCSc1ccc([C@@H]2[C@@H]3C(=O)N(CC)C(=O)[C@@H]3[C@]3(C(=O)OC)CCCN23)cc1	5.5	-0.4	-2.8	-3.9	4.5	-0.5%
CCNC(=O)Oc1ccc(-c2csnn2)cc1	13.6	0.1	0.6	-0.2	0.5	0.6%
Cc1nn(Cc2c(Cl)cccc2Cl)c(C)c1NC(=O)Cn1nc([N+](=O)[O-])c(Cl)c1C	-21.1	0.3	-2.1	2.6	-0.2	4.0%
N=C1SCC(=O)N1c1ccccc1Cl	-15.3	1.3	-1.7	-21.2	4.0	2.7%
CCOC(=O)c1cnc2c(ccc3ccccc32)c1Nc1ccc(N(C)C)cc1	5.0	1.1	·	·	·	2.3%
COc1ccc(OC)c(C(=O)NC(CC(N)=O)c2ccc(NCc3ccc(F)c(F)c3)c([N+](=O)[O-])c2)c1 (stereo not given)	58.7	0.0	-1.3	·	-8.1	1.7%
CC(=O)Nc1ccc2c(c1)C(=Nc1cccc(C)c1)c1ccccc1-2	3.1	0.9	-2.1	-22.0	-26.1	21.8%
COC(=O)c1cc(Cl)cc2c(CCO)c[nH]c12	-3.4	-0.4	-2.5	0.5	-6.1	-0.5%
COc1ccccc1C1CCN(c2ccc([N+](=O)[O-])c(OC)c2)CC1	23.4	3.3	-1.0	-20.6	-29.6	-0.1%

2 records picked at random from those above, as already listed:
mol	TRPML1 inh	TRPML1 ag	D2 ag	CtBP-E1A blk	Six1-Eya2 inh	PINK1 expr mod
CCSc1ccc([C@@H]2[C@@H]3C(=O)N(CC)C(=O)[C@@H]3[C@]3(C(=O)OC)CCCN23)cc1	5.5	-0.4	-2.8	-3.9	4.5	-0.5%
COC(=O)c1cc(Cl)cc2c(CCO)c[nH]c12	-3.4	-0.4	-2.5	0.5	-6.1	-0.5%

The list continues:
mol	TRPML1 inh	TRPML1 ag	D2 ag	CtBP-E1A blk	Six1-Eya2 inh	PINK1 expr mod
Cc1ccc(CNC(=O)c2sccc2-n2cccc2)cc1	-11.9	-0.2	-4.2	-13.3	-16.5	9.3%
C=C1C(=O)C=C[C@]2(C)C[C@@H]3OC(=O)[C@](C)(O)[C@H]3C[C@@H]12	-2.2	-0.2	-2.4	3.7	-0.4	5.9%
COc1cc2c(cc1OC)C(C)N(C(=O)c1c(C)noc1C)CC2 (stereo not given)	3.1	-0.8	-5.4	·	4.8	7.8%
Cc1cccc(CC(=O)NCCS(=O)(=O)N2CCN(c3cccc(Cl)c3)CC2)c1	3.7	1.7	-13.8	-10.9	-5.5	-2.7%
CCCOc1ccccc1NC(=O)c1ccc([N+](=O)[O-])cc1	14.8	2.3	0.7	0.0	-1.6	-0.7%
CC1(C)CC(=O)C=C(NC2CCCCCCC2)C1	-3.6	-0.1	0.8	3.8	3.5	-1.5%
CCOC(=O)c1cnc(SCC(=O)Nc2ccc(N3CCOCC3)c(Cl)c2)nc1N	25.5	0.7	1.2	4.6	0.9	2.2%[38.3 µM]
CNc1oc(/C=C/c2ccccc2)nc1C#N	-14.5	5.4	-3.0	-0.2	10.3	5.1%
Nc1ncnc2c1ncn2[C@@H]1O[C@H](C(=O)Nc2cc(C(F)(F)F)cc(C(F)(F)F)c2)[C@@H](O)[C@H]1O	-12.6	-0.2	4.5	4.4	7.4	6.8%
C/C(=N\Nc1ccc(Cl)c(C(=O)O)c1)c1ccc(Br)s1	-2.1	-0.1	2.2	-8.1	-18.8	2.7%

(more compounds)
mol	TRPML1 inh	TRPML1 ag	D2 ag	CtBP-E1A blk	Six1-Eya2 inh	PINK1 expr mod
NS(=O)(=O)c1ccc(NC(=O)CSc2n[nH]c(=O)n2Cc2ccccc2)cc1	16.7	0.6	3.9	2.5	4.2	-0.7%
COC(=O)C1(C(O)C(=O)c2ccc(C)cc2C)CCCCC1 (stereo not given)	-6.1	-0.2	-0.7	19.0	10.8	10.5%
O=C(COC(=O)CCC(=O)c1cccs1)Nc1ncc(Cl)cc1Cl	-0.8	1.6	0.9	0.0	0.0	1.5%
COc1ccnc2c1c(=O)n(Cc1cccc(Cl)c1)c(=O)n2C	-8.1	0.7	-3.3	·	-19.2	3.3%
CC(C)(C)N=C1C([N+](=O)[O-])=CC=C2C1=NC1(CCCCC1)N2O	-17.9	0.1	3.8	4.1	-25.6	1.0%
COc1ccc2c(c1OC)C(=O)N1N=C(c3ccc(F)cc3)CC21 (stereo not given)	-4.7	0.8	-4.1	·	-2.6	1.2%
CCCCn1nnnc1NCc1ccc(C)cc1	-9.2	0.5	-2.8	4.1	2.2	0.7%
Cc1ccc(-c2nnc(Nc3ccc4c(c3)OCO4)c3ccccc23)cc1S(=O)(=O)NCCO	9.0	0.6	-3.6	-18.1	-20.6	-0.4%
CCCCN(CC)CCNC(=O)CCn1cnc2onc(-c3ccc(F)cc3)c2c1=O	-5.9	0.8	·	·	·	0.6%
CC(=O)Nc1ccc(S(=O)(=O)NC(CC(=O)NCCCN2CCOCC2)C(C)C)cc1 (stereo not given)	-18.4	0.2	-4.5	16.6	-9.3	-1.5%
COc1ccccc1NS(=O)(=O)c1ccc(C(=O)N2CCCCCCC2)cc1	1.3	2.8	7.0	-7.3	2.0	-0.3%
